HNF4A DNA FP = change in binding of human HNF4A to DNA, primary screen, biochemical, fluorescence polarization, FITC-DNA; Hepatocyte nuclear factor 4-alpha (Homo sapiens), P41235; activity change, % at 10 µM; 360,000 compounds, 0.3% hits; 1 h; in the data active means activity change above about 30%, passing the limit was not always enough;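 further: controls were the assay level and a saturating level of protein; the project sought stronger binding though the title names inhibitors; some compounds called inactive have numbers as strong as hits; positive values seem to mean higher polarization but the record does not say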
Target sequence (P41235 whole entry, looked up): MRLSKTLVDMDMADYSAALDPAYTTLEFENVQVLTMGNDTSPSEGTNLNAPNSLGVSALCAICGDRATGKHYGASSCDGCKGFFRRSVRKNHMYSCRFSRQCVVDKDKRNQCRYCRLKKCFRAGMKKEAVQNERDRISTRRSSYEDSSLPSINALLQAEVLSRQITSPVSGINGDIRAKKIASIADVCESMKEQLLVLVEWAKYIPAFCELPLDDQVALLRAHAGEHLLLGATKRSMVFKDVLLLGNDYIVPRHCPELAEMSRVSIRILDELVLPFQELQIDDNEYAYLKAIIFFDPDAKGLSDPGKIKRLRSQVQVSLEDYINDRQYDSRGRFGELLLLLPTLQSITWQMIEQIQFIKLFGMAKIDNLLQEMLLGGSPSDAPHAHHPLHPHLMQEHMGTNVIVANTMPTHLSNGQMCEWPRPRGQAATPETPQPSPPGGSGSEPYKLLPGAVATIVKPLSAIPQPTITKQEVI
Vif TR-FRET = inhibitors of Vif binding to APOBEC3G peptide, primary screen, biochemical, TR-FRET, GST-Vif 1-94, biotin-A3G peptide, dose response retest (AID 1117319) | Virion infectivity factor (Human immunodeficiency virus type 1 group M subtype B (isolate … | TR-FRET GST-Vif / biotin-A3G peptide binding; higher % means a stronger effect; test concentration not given here; strong numbers were not always called active | inhibition, %; hits with a dose series show IC50 in µM | 260,000 compounds, 0.57% hits;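 active means above the screen mean plus three standard deviations and confirmed in dose response; inconclusive means results disagree or hit not tested in dose response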;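 further: Vif residues 1-94 fused to GST binding biotinylated APOBEC3G peptide 110-148; 0% = full assay without inhibitor and 100% = GST in place of GST-Vif; retest series ran down from 100 µM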
B2AR ag = beta2AR agonists driving receptor internalization, primary screen, cell-based, FAP fluorogen, flow cytometry; 340,000 compounds, 0.43% hits; Beta-2 adrenergic receptor (Homo sapiens), P07550; response, % (concentration not given with the values); Am2.2-beta2AR cells; reference of the scale not given here;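 active means response above a set limit, near 3 SD of response in nonfluorescent compounds, cut at about 42% in these data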;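 further: stock transfer was 100 nL into about 11 µL; a reference agonist was the positive control; negative values mostly stem from fluorescent compounds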
Target sequence (P07550 whole entry, looked up): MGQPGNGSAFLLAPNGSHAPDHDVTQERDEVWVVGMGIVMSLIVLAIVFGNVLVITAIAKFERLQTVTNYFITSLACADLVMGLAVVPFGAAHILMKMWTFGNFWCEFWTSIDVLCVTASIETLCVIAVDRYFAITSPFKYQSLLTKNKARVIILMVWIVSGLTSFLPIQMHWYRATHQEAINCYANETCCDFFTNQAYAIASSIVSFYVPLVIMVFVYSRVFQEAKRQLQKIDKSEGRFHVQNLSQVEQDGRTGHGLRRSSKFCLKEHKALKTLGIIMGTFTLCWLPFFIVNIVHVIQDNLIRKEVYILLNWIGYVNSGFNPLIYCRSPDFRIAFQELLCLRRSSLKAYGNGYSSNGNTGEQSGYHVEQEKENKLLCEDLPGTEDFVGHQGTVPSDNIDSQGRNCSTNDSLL
Calb FLC = C. albicans growth inhibition with fluconazole, primary screen, CaCi-2 strain, Alamar Blue fluorescence; C. albicans CaCi-2 (fluconazole-resistant clinical isolate) + fluconazole, 48 h; growth inhibition, % (test concentration not listed); 300,000 compounds, 0.57% hits; AID 1979, 2009;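 active means most replicates above 75%; inconclusive means exactly half above 75%; inactive means most below 75%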;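 further: all wells also contain fluconazole at 8 µg/ml as a sub-toxic cotreatment; 0% = median of DMSO wells and 100% = median of geldanamycin control wells; wells of about 8 µL received 7.5 nL stock; the first replicate is given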
RanGTP-Impb inh = inhibitors of RanGTP-importin-beta interaction, primary screen, biochemical, FRET, CFP-Ran, YFP-importin-beta, homogeneous | cell-free CFP-Ran/YFP-importin-beta FRET ratio | inhibition, % (test concentration not listed) | Ran GTPase (GTP-bound) - importin-beta complex | 300,000 compounds, 1.1% hits;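 active means most replicates above 15%; inconclusive means exactly half above 15%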;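 further: 0% = DMSO wells and 100% = Ran loaded with GDP instead of GTP; wells of about 40 µL received 100 nL stock; the first replicate is given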
LANA-H2A inh = blockers of LANA interaction with H2A/H2B – biochemical, FP readout, HTS, primary screen | AID 2629, 2010 | cell-free LANA-H2A/H2B peptide, fluorescence polarization | 320,000 compounds, 0.6% hits | inhibition, % (no concentration beside the values); in the data active means inhibition mostly above about 10%, no sharp cut-off; inactive means mostly below about 6.7%;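 further: stock transfer was 7.5 nL into about 10 µL; 0% = median of vehicle wells and 100% = median of positive control wells; one replicate is shown; the record names a cut of 25% in any replicate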
ALR H2O2 inh = inhibitors of human ALR sulfhydryl oxidase, primary screen, biochemical, H2O2 detection, HRP-luminol luminescence, single point. purified ALR, DTT oxidation. 290,000 compounds, 3.8% hits. AID 485317, 2010. inhibition, % (no concentration beside the values). FAD-linked sulfhydryl oxidase ALR (Homo sapiens), P55789;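 active means mean and each replicate at 75% or more; inconclusive means only one of the two met; inactive means neither met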;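 further: stock transfer was 7.5 nL into about 7.5 µL; 0% = neutral wells and 100% = wells with inactivated enzyme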
Target sequence (P55789 whole entry, looked up): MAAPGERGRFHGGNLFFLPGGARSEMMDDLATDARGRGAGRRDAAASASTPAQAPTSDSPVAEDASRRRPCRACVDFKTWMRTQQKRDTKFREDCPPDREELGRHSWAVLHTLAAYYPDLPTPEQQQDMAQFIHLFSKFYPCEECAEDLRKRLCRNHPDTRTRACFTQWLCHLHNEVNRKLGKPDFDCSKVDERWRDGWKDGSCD
* hit, by the source's call; ? = inconclusive; . = not tested or not shown; + = active, no number; & = joins results of further samples. Compounds as they come; any-hit rate near 6.3%.

SMILES	HNF4A DNA FP	Vif TR-FRET	B2AR ag	Calb FLC	RanGTP-Impb inh	LANA-H2A inh	ALR H2O2 inh
CCCCOc1ccccc1C(=O)NNC(=S)NC(=O)c1ccccc1[N+](=O)[O-]	-1.9	4.2%	8.0	102.5*	-4.1	2.1	84.1*
Cc1ccc(N(C(=O)CNC(=O)c2ccco2)C(C(=O)NC2CCCC2)c2ccncc2)cc1 (stereo not given)	0.7	.	-9.1	-17.0	-0.6	1.0	11.1
CCc1cccc(NC(=O)c2ccc3c(=O)n4c(nc3c2)CCCCC4)c1	1.8	.	-0.8	3.3	3.4	-0.3	-5.6
C=CCNC(=O)c1cccc2c1C(=O)c1ccc(N3CCCC3)cc1S2(=O)=O	64.8	.	-9.6	.	.	3.6	-3.3
COc1ccc(C2CC(c3cccs3)=NN2C(=O)COC(=O)c2cc3ccccc3cc2O)cc1OC (stereo not given)	-0.6	-1.8%	1.4	4.2	1.5	-0.6	-11.7
O=C(c1cccc(Oc2ccc([N+](=O)[O-])cc2Cl)c1)N1CCCCC1	-2.6	4.1%	10.4	4.0	9.6	2.4	-2.3
Cc1cc(C)n2nc(SCC(=O)N/N=C/c3ccccn3)nc2n1	1.5	9.7%	-14.6	-4.3	-1.1	-1.0	-8.4
Cc1ccc(CCN2CC(C(=O)NC3CCCC3)CC2=O)cc1 (stereo not given)	2.8	5.2%	8.1	-8.7	1.3	-16.1	-2.3
CCCC1C2C(=O)N(c3ccccc3)C(=O)C2ON1c1ccccc1 (stereo not given)	-0.1	3.6%	2.5	-4.8	4.0	4.4	1.9
CCN(CC)C(=O)c1cn(-c2cccc(OC)c2)c(=O)c2ccccc12	1.2	-11.7%	0.5	10.1	3.5	0.9	-2.4
O=c1oc(CCCO)cc2ccc(/C=C/c3cccc([N+](=O)[O-])c3)cc12	-0.6	.	15.0	.	.	-1.9	10.2
O=C(CSc1nnc(-c2ccccc2F)o1)N1CCCC1	1.9	.	-9.3	6.3	-0.6	1.8	.
O=C(c1ccc2nc(N3CCOCC3)sc2c1)N1CCN(C(=O)c2ccco2)CC1	1.5	28.4%	-3.7	2.4	1.4	-1.6	-19.9
Cc1cccc(CCN2C(N(C)C)=NC[C@@H]2C)c1	1.0	.	1.4	.	.	8.3	.
Cc1ccc(S(=O)(=O)N2CCCOC2CNC(=O)C(=O)NCc2ccncc2)cc1 (stereo not given)	19.6	-0.1%	-4.6	10.7	-2.2	-1.2	-1.4
O=C(Nc1nc(-c2ccc(Cl)cc2Cl)cs1)c1ccc(OCC2CCCO2)cc1 (stereo not given)	-0.9	-80.1%	0.3	2.9	2.9	-2.2	-0.8
O=C(Nc1c(F)cccc1F)c1cnc(N2CCN(c3ccccn3)CC2)c2ccccc12	1.8	-7.3%	-14.8	-0.9	2.6	-3.1	.
Oc1c(CN2CCN(c3ccccc3)CC2)cc(Br)c2cccnc12	-3.3	15.5%	27.9	101.6*	7.3	3.4	-67.0
O=C(O)c1cc(C(=O)C2CC2)c[nH]1	-0.6	-1.4%	0.5	-5.2	.	2.6	-0.6
O=C1NCCCC1C(=O)NCCN1C(=O)CCC1=O (stereo not given)	-3.2	-4.7%	-4.0	2.7	-1.0	3.0	6.2
Cc1c(NC(=O)COC(=O)c2ccccc2Cl)c(=O)n(-c2ccccc2)n1C	0.3	71.7%	1.0	6.3	-4.1	0.8	-2.0
CCn1cc(C(=O)NCCCOC)c2cc(OC)c(OC)cc2c1=O	-3.4	-6.9%	-10.9	-0.9	2.1	-0.6	-1.1
Cc1ccc(C(C)C)cc1OCC(=O)Nc1ccccc1N1CCCC1	3.9	.	4.9	-3.5	3.4	-5.2	-3.8
Cc1ccc(-c2cc(=O)[nH]c3ccccc23)cc1	-1.3	1.4%	-8.9	-10.1	-3.0	1.2	.
CC1(C)CC[C@@]23CC[C@]4(C)[C@@](OC2=O)(C3C1)[C@H]1O[C@H]1C1[C@@]2(C)CC[C@H](O)C(C)(C)C2CC[C@]14C (stereo not given in full)	.	.	.	1.5	-3.6	8.3	-28.1

(list continues)
SMILES	HNF4A DNA FP	Vif TR-FRET	B2AR ag	Calb FLC	RanGTP-Impb inh	LANA-H2A inh	ALR H2O2 inh
CC(C)CNC(=O)c1cccc(NC(=O)Cc2ccc(Br)cc2)c1	-1.7	-0.6%	-4.7	4.1	1.3	3.4	-3.9
COc1cc(/C=N/n2cnnc2)ccc1OC(=O)c1cccnc1	-1.9	3.7%	-4.1	-5.4	-1.5	-5.0	.
NC(=O)CC(NC(=O)Cc1ccc(Cl)cc1)c1ccc(NC2CCN(Cc3ccccc3)CC2)c([N+](=O)[O-])c1 (stereo not given)	-1.1	.	1.6	-1.7	-5.0	1.7	-3.2
Cc1ccn(C(C)CC(=O)N2CCc3ccccc32)n1 (stereo not given)	0.0	-6.0%	2.8	-7.9	1.4	2.4	-7.9
COc1cc(/C=C2\C(=N)N3N=C(S(C)(=O)=O)SC3=NC2=O)ccc1OC(=O)c1cccs1	6.0	.	4.4	26.1	5.0	-4.3	30.3
COc1ccc(C2C(C(=O)c3cccs3)=C(O)C(=O)N2c2cccc(C)n2)cc1OC (stereo not given)	2.5	-2.1%	5.0	12.7	2.9	-0.3	.
CS(=O)(=O)c1ccc(Cl)c(C(=O)Nc2ccc3nc(N4CCOCC4)sc3c2)c1	4.7	6.2%	11.7	.	.	-3.1	7.2
CCCCCN(C(=O)CCC(=O)OCC(=O)c1cccc(OC)c1)c1c(N)n(CCCC)c(=O)[nH]c1=O	1.6	.	-1.7	-7.6	1.6	3.7	-6.7
Cc1ccc(-c2cc(C(=O)NCCc3ccccn3)c3ccccc3n2)c(C)c1	-1.3	.	12.6	-7.6	2.9	2.2	.
COc1ccc(N2CCN(C(=O)c3ccc(CS(=O)(=O)c4ccc(Br)cc4)o3)CC2)cc1	-1.1	.	-8.9	6.0	?	0.9	-2.8
CCCOc1ccc(-c2nc(-c3ccc([N+](=O)[O-])cc3)cs2)cc1	3.1	-18.1%	10.6	.	3.8	-5.4	28.6
COc1cc(C)ccc1OCC(=O)Nc1nnc(C2CC2)s1	3.2	.	-0.9	.	.	-0.2	20.7
Cc1csc(=O)n1CC(=O)OC(C)C(=O)Nc1ccc(F)c(F)c1F (stereo not given)	3.1	3.4%	-9.3	-5.3	-3.1	4.0	-3.5
CC(C)(C)OC(=O)C[C@H]1C/C=C\C[C@H](CC(=O)NCCO)C(=O)NC[C@@H](c2ccccc2)OC1=O	-0.3	.	-5.4	.	.	10.6	-2.6
COc1ccccc1/C=C/c1onc(C)c1S(=O)(=O)N1CCC(C(=O)NC(C)C)CC1	-3.5	.	44.0*	2.7	0.3	-1.0	5.7
COc1cc2c(cc1OC)C(COc1ccc(F)cc1)N(C(=O)c1ccco1)CC2 (stereo not given)	-0.5	-1.6%&-4.8%	-11.7	9.5	3.3	0.8	2.3
COC(=O)COc1ccc(S(=O)(=O)Nc2ccccc2C(=O)OC)cc1	1.8	4.9%	12.9	-0.2	-2.5	2.6	-11.9
COc1ccccc1N(CC(O)CN1C(C)CCCC1C)S(=O)(=O)c1ccccc1 (stereo not given)	0.4	32.3%	2.1	1.8	0.9	-0.9	.
COc1ccc(C(CC(=O)c2ccccc2)C2CCCCC2=O)cc1 (stereo not given)	1.0	4.4%	1.5	-2.2	-1.2	-5.3	-0.1
Cc1ccc(S(=O)(=O)N2[C@@H](c3ccc4c(c3)OCO4)C(C(=O)O)=C[C@H]2C(C)(C)C)cc1	-3.5	-4.8%	-5.4	.	.	3.2	.
O=C1CN(S(=O)(=O)c2ccc(Cl)cc2)CC(=O)N1CCc1ccccc1	1.3	-2.1%	4.1	-6.0	-3.0	-0.2	-4.1
COc1ccc(Cl)cc1CN1CCN(c2nc(C)cc(C)c2C#N)CC1	-10.4	-7.5%&1.4%	6.8	-8.6	4.7	5.1	-3.8
Cc1cc(C)cc(C(=O)NCCC(=O)NCc2cc(=O)n(C)c(=O)n2C)c1	-4.9	-0.4%	0.6	0.9	-3.3	4.7	-1.7
Cc1cccn2c(=O)c3cc(C(N)=S)c(=N)n(CCCN4CCOCC4)c3nc12	8.9	32.8%	-20.9	-11.3	-2.3	-3.7	-2.4
CC(C)NS(=O)(=O)c1ccc(CCC(=O)N2CCCCC2)cc1	-2.1	.	-7.5	5.3	-3.3	4.2	-16.0

In the list so far, four contain fluorine.
SMILES	HNF4A DNA FP	Vif TR-FRET	B2AR ag	Calb FLC	RanGTP-Impb inh	LANA-H2A inh	ALR H2O2 inh
O=C(CSc1nnc(-c2ccccc2F)o1)N1CCCC1	1.9	.	-9.3	6.3	-0.6	1.8	.
O=C(Nc1c(F)cccc1F)c1cnc(N2CCN(c3ccccn3)CC2)c2ccccc12	1.8	-7.3%	-14.8	-0.9	2.6	-3.1	.
Cc1csc(=O)n1CC(=O)OC(C)C(=O)Nc1ccc(F)c(F)c1F (stereo not given)	3.1	3.4%	-9.3	-5.3	-3.1	4.0	-3.5
COc1cc2c(cc1OC)C(COc1ccc(F)cc1)N(C(=O)c1ccco1)CC2 (stereo not given)	-0.5	-1.6%&-4.8%	-11.7	9.5	3.3	0.8	2.3

Returning to the listing, starting 2 compounds before the break.
SMILES	HNF4A DNA FP	Vif TR-FRET	B2AR ag	Calb FLC	RanGTP-Impb inh	LANA-H2A inh	ALR H2O2 inh
Cc1cccn2c(=O)c3cc(C(N)=S)c(=N)n(CCCN4CCOCC4)c3nc12	8.9	32.8%	-20.9	-11.3	-2.3	-3.7	-2.4
CC(C)NS(=O)(=O)c1ccc(CCC(=O)N2CCCCC2)cc1	-2.1	.	-7.5	5.3	-3.3	4.2	-16.0
O=S(=O)(c1cccc(-c2nc3n(n2)Cc2ccccc2-3)c1)N1CCCC1	0.0	31.6%	-14.7	-5.2	1.2	-2.4	-2.9
Fc1ccc(COc2ccc(Cl)cc2/C=N/Nc2nc(N3CCCC3)nc(N3CCCC3)n2)cc1	-0.7	-1.6%	-5.1	14.4	?	1.1	0.6
CCN(CC)S(=O)(=O)c1ccc(N2CC(C(=O)NCCc3ccc(Cl)cc3)CC2=O)cc1 (stereo not given)	-2.1	-5.7%	5.3	.	.	+	0.7
O=c1cc(CN2CCN(S(=O)(=O)c3ccccc3)CC2)nc2ccc(Cl)cn12	4.1	-1.0%	6.7	.	.	-232.0	0.2
O=C(COC(=O)CNC(=O)c1ccc(Cl)c([N+](=O)[O-])c1)NNC(=O)c1ccccc1F	1.0	-2.6%	-1.7	.	.	0.8	-1.1
COc1ccc(N2CC(C)Cn3c2nc2c3c(=O)n(Cc3ccccc3F)c(=O)n2C)c(OC)c1 (stereo not given)	-3.5	1.7%	0.4	-4.1	-2.4	-2.2	-31.3
C=CCn1c(SCC(=O)OCc2ccccc2)nc2c1c(=O)n(C)c(=O)n2C	0.7	4.8%	-3.4	0.4	0.7	-0.8	-7.3
CCCN(C(=O)COC(=O)CC1CCCCC1)c1c(N)n(Cc2ccccc2)c(=O)[nH]c1=O	0.7	3.2%	-2.1	4.6	2.0	3.4	0.6
CC1=CC(C)=Nc2ccccc2N1	1.8	0.6%	-4.3	5.8	-1.3	6.3	-19.4
CC1CN(CCOc2cccc(Oc3ccccc3)c2)CC(C)O1 (stereo not given)	-0.2	.	-2.0	-4.8	0.4	-0.5	4.9

Compound activity as filed in PubChem.
